# TRPV1 potentiator – HTS Assay for Compounds that Act as Potentiators of the Vanilloid Receptor 1; Transient receptor potential cation channel subfamily V member 1 (Homo sapiens), Q8NER1; TRPV1-expressing cells, Fluo-8 calcium influx, capsaicin EC20 potentiation; host cell line not named in the record; control for the full effect not named in the record; potentiation, % at 8.33 µM; hit rate 0.02% among 320,000; AID 540277, 2011; active means potentiation above 80%; inconclusive means 30% to 80%; inactive means below 30%; further: 0% is about no effect
#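 Cells expressing TRPV1 were dye-loaded with Fluo-8 and read kinetically: 10 s baseline, 3 min after compound (agonist portion), then 2 min after EC20 capsaicin (allosteric enhancer portion). Calcium-bound dye fluorescence at 480/520 nm.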
# CtBP-E1A inh – qHTS Assay for Inhibitors of the CtBP/E1A Interaction | CtBP / adenovirus E1A interaction (AlphaScreen) | AlphaScreen GST-E1A/His-CtBP binding, 1536-well; active compounds read low; control for the full effect not named in the record | activity change, % (no concentration beside the values) | hit rate 0.49% among 340,000 | AID 651724, 2012; in the data active means activity change below about -65%; inconclusive means about -30% to -65%; inactive means above about -30%; further: on the % scale 0 is the no-effect control and ±100 the full control effect
#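 In 5 uL wells, 23 nL compound meets equimolar GST-E1A and His-CtBP (5X stock 125 nM each) for 2 h, 37 °C. Beads (5X, 50 ug/mL) then 1 h, 37 °C, dark.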
# PINK1 modulator – A Quantitative High throughput Screen to Identify Chemical Modulators of PINK1 Expression. PINK1 immunofluorescence, high-content cytometry, 24 h. Potency, µM (highest dose often 76.6 µM), for inactives: at the highest dose activation (PINK1 increase), actives largely listed as activators. hit rate 0.2% among 410,000. AID 624263, 2012; active = well fitted activation curve with a large enough effect; inconclusive = small, poorly fitted or top-dose-only effect; inactive = flat fitted curve, though single readings scatter; cell line not stated here;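 further: potency means the concentration at half of the fitted maximal effect; % of control where 0% means no effect; nearly all actives have a fitted effect of over 65% in size; a mitochondrial uncoupler was the plate control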
#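 PINK1 protein level read as immunofluorescence by microplate cytometer in a fixed, stained stable cell line after 24 h exposure to five compound concentrations, with CCCP as control.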
# D2 potentiator – Beta-Arrestin HTS for Positive Allosteric Modulators of the Human D2 Dopamine Receptor: Potentiators; D(2) dopamine receptor (Homo sapiens), P14416; DiscoveRx D2 beta-arrestin cells, luminescence, 90 min; 100% = 57 uM dopamine signal; potentiation, % (concentration not given with the values); hit rate 0.23% among 360,000; active = potentiation of 50% or more; inconclusive = 30% to 50%; inactive = 30% or less;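 further: compound concentration not given in the record; tested on top of an EC20 dose of dopamine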
#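 PathHunter beta-arrestin assay in DiscoveRx D2 cells. Compounds were added with an EC20 of dopamine (50 nM final) for 90 min at 37 deg C. Luminescence was read 1 h after detection reagent, with 57 uM dopamine as the EC100 control.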
# Six1-Eya2 blk – qHTS Assay for Inhibitors of the Six1/Eya2 Interaction; Homeobox protein SIX1 (Homo sapiens) + Protein phosphatase EYA2 (Homo sapiens), …; activity change, % (concentration not given with the values); AID 651725, 2012; hit rate 0.56% among 360,000; AlphaScreen GST-Six1/His-Eya2 binding, biochemical; active compounds read low; control for the full effect not named in the record; in the data active = activity change below about -65%; inconclusive = about -30% to -65%; inactive = above about -30%; further: on the % scale 0 is the no-effect control and ±100 the full control effect
# Target sequence (O00167 whole entry, looked up): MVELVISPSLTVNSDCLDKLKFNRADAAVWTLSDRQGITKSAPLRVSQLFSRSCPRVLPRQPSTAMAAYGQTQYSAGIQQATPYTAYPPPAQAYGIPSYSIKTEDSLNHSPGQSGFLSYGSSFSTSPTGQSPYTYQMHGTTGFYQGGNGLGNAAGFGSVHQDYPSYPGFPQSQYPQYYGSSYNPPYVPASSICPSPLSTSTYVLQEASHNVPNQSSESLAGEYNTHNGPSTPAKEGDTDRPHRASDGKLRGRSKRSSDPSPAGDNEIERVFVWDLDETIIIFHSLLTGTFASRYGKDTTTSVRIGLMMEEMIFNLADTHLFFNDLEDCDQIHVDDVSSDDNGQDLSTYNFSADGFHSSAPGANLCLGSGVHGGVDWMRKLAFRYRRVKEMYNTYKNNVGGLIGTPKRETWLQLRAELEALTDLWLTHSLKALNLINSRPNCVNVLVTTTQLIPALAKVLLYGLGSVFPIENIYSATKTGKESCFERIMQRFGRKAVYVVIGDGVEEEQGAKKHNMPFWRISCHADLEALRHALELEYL
# Target sequence (Q15475 whole entry, looked up): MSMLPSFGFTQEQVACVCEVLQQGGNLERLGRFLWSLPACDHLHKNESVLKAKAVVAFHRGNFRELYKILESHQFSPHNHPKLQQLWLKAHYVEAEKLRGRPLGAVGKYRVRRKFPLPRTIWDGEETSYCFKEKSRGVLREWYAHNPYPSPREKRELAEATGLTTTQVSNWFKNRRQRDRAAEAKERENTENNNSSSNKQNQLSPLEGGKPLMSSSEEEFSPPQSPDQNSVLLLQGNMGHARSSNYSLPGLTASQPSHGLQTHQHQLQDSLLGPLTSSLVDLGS
#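 Compounds are tested against tagged Six1 and Eya2 proteins bridged by glutathione donor and nickel acceptor beads; after a one-hour incubation at 37 °C without light, AlphaScreen emission is recorded.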
# Sfp PPTase inh – qHTS Assay for Inhibitors of Bacillus subtilis Sfp phosphopantetheinyl transferase (PPTase); 4'-phosphopantetheinyl transferase ffp (Bacillus subtilis), Q9F4F7; Biochemical Sfp PPTase activity, qHTS; Potency, µM, without a hit: max response, negative = inhibition, actives largely listed as inhibitors; hit rate 3.5% among 310,000; AID 1490, 2009; active means well fitted inhibition curve with a large enough effect; inconclusive means small, poorly fitted or top-dose-only effect, or another doubt; inactive means no such curve, though single readings can be large or run the other way;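 further: the enzyme is Sfp with the accession as filed and its product quenches rhodamine fluorescence; potency means the concentration at half of the fitted maximal effect; 0% = enzyme reaction without inhibitor and -100% = no enzyme wells; top concentration of the series not given in the record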
#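 Step 1, compound plus 15 nM Sfp-PPTase, 15 min, room temperature. Step 2, add rhodamine-CoA (5 uM) and BHQ-2-YbbR (12.5 uM). Step 3, read 525/598 nm fluorescence at 0 and 30 min.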
# D2 agonist – Beta-Arrestin HTS for Positive Allosteric Modulators of the Human D2 Dopamine Receptor: Agonists | DiscoveRx PathHunter D2 beta-arrestin, luminescence, 90 min; 100% = 57 uM dopamine signal | activation, % (concentration not given with the values) | hit rate 0.084% among 360,000; in the data active = activation above about 40%; inconclusive = about 15% to 40%; inactive = below about 15%; further: compound concentration not given in the record; the text of the record calls up to 30% inactive
#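 Agonist mode: compounds alone added to overnight-plated D2 PathHunter cells for 90 min at 37 C, with 57 uM final dopamine (EC100) defining full response. Beta-arrestin recruitment detected by chemiluminescent reagent, read after 1 h at ambient temperature.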
# Starred values were filed as active, the others as inactive; ? = inconclusive; / = not tested or not shown; & = joins results of further samples.
(1) Cc1nc2c(-c3ccc(F)cc3)c(C)nn2c(C)c1CCC(=O)N1CCOCC1
(2) CSc1ccccc1NC(=O)CSCc1ccc(Br)cc1
(3) COc1cc(OC)c2c(c1C(CCN1CCOCC1)c1ccc(N(C)C)cc1)OC(=O)CC2c1ccc(N(C)C)cc1 (stereo not given)
(4) Cc1ccc(OC(=S)Nc2ccc(F)cc2)cc1
(5) O=C(O)c1cccc(NS(=O)(=O)c2ccc(-c3ccc(S(=O)(=O)Nc4cccc(C(=O)O)c4)cc3)cc2)c1
(6) CC(C1=C(CCN(C)C)Cc2ccccc21)c1ccccn1 (stereo not given)
(7) COCCCn1c(CCC(=O)O)ccc1-c1ccc(F)cc1
(8) CCOc1ccccc1N=Nc1c(C)[nH]n(-c2ccccc2)c1=O
(9) Cc1cc(C(=O)CCC(=O)N(C)CC(=O)Nc2ccc(OC(F)(F)F)cc2)c(C)s1
(10) Cc1c(NC(=S)N/N=C/c2ccc(Br)cc2)c(=O)n(-c2ccccc2)n1C

Screen / compound no.,1,2,3,4,5,6,7,8,9,10
TRPV1 potentiator,18,-1,5,8,-8,/,-5,-5,3,-1
CtBP-E1A inh,0,13,?,-8,/,7,1,-13,2,2
PINK1 modulator,0.3%,8.4%,3.5%,4.1%,-1.6%,-5.0%,-2.4%,1.1%,1.7%,1.7%
D2 potentiator,-2,-26,-18,5,-57,-37,-7,-8,-9,-6
Six1-Eya2 blk,6,21,-80*,-8,-9,-4,-12,-12,2,-2
Sfp PPTase inh,7%,5%,-17%&-24%,17%,12%,/,5%,-3%,/,18%
D2 agonist,-7.2,0.0,-2.7,-3.0,-9.0,-2.1,1.1,-5.2,-4.3,-5.4

(11) COc1cc(OC)cc(C(=O)NC2=NCCS2)c1
(12) CCOC(=O)Cc1csc(SCC(=O)Nc2cc(Cl)ccc2Oc2ccccc2)n1
(13) CCN1CCN(c2ccc(S(=O)(=O)N3CCCCC3)cc2NC(=O)COc2cc(C)ccc2Cl)CC1
(14) COc1ccc(C2=Nc3ccccc3NC(=O)C2N(Cc2ccccc2)C(=O)C2=NNC(=O)CC2)cc1 (stereo not given)
(15) CC(=O)N1CCN(c2ccccc2NC(=O)c2cc(Br)ccc2Cl)CC1
(16) CCCC(C(=O)NC1=NCCS1)c1ccccc1 (stereo not given)
(17) C=CCn1cc(C(=O)N2CCN(CC)CC2)c(=O)c2cc(S(=O)(=O)N(CC)CC)ccc21
(18) COc1ccc(C2CC(c3cccs3)=NN2C(=O)c2ccccc2)cc1OC (stereo not given)
(19) CC1(C)CC(C(CC(=O)N2CCCC2)Cc2ccccc2)CCO1 (stereo not given)
(20) Cc1ccc(CN2CCN(Cc3cc(=O)c4ccccc4[nH]3)CC2CCO)o1 (stereo not given)

Screen / compound no.,11,12,13,14,15,16,17,18,19,20
TRPV1 potentiator,1,3,-5,/,1,7,-2,12,-21,-2
CtBP-E1A inh,-3,21,-13,-3,0,0,12,-3,1,-5
PINK1 modulator,1.1%,1.3%,0.0%,1.8%,0.0%,0.3%,2.7%,-0.3%,1.8%,2.0%
D2 potentiator,-8,-15,-27,-10,6,2,5,-5,-3,-3
Six1-Eya2 blk,-1,33,-25,-1,21,7,10,-18,0,2
Sfp PPTase inh,-2%,16%,/,/,5%,-3%,13%,-1%,21%,-13%
D2 agonist,-0.7,1.7,-5.3,-4.0,0.5,0.0,0.1,-1.8,1.2,-5.7

(21) CC(=O)Nc1ccc(NC(=O)C(C)OC(=O)c2ccc(S(=O)(=O)N3CCCCC3)cc2)cc1 (stereo not given)
(22) COc1ccc2c(c1)OC1(C)CC2C(C(=O)c2ccccc2OC)C(=O)N1 (stereo not given)
(23) COc1ccc(NC(=O)CSc2nc3ncccc3[nH]2)cc1OC
(24) CCN(CC)C(=O)[C@H]1CC(CC(=O)NC(C)(C)C)C(=O)N2CCc3c([nH]c4ccccc34)[C@]12C (stereo not given in full)
(25) CSc1oc(-c2ccco2)nc1S(=O)(=O)c1ccc(F)cc1
(26) COc1ccc(CCNC(=O)c2ccc3c(c2)NC(=O)CS3)cc1OC
(27) Cc1nc2[nH]c(=S)n(C)c(=O)c2nc1C
(28) COc1ccc(S(=O)Cc2ccc(C(=O)NCc3cccc(OC)c3)o2)cc1 (stereo not given)
(29) CCOC(=O)Cc1nnc(Nc2ccc(C)cc2)c2ccccc12
(30) COc1ccc(/C=C2\SC(=S)N(C(C)C(=O)NC3C=CS(=O)(=O)C3)C2=O)cc1 (stereo not given)

Screen / compound no.,21,22,23,24,25,26,27,28,29,30
TRPV1 potentiator,/,24,5,/,-12,9,0,0,-38,11
CtBP-E1A inh,2,1,3,4,-6,-4,-2,-1,1,-27
PINK1 modulator,22%,2.5%,/,-1.5%,0.2%,4.3%,1.6%,2.9%,-1.6%,0.6%
D2 potentiator,-5,0,-17,-5,-5,7,-12,-3,-10,-6
Six1-Eya2 blk,5,2,-1,4,0,-4,3,3,10,-12
Sfp PPTase inh,/,13%,2%,/,79µM*,0%,?,5%,-4%,?
D2 agonist,3.8,1.9,-2.7,-1.2,-3.5,2.3,-2.1,-1.2,-4.4,2.1

(31) O=C(Cc1ccc(F)cc1)N1CCN=C1SCc1ccc([N+](=O)[O-])cc1
(32) S=C(NCc1ccccc1)NCc1ccccn1
(33) Cc1cc(-n2c(SCc3ccccc3F)nc3n[nH]c(C)c3c2=N)ccc1Cl
(34) O=C(COC(=O)CCC1CCCC1)Nc1cc(S(=O)(=O)N2CCOCC2)ccc1Cl
(35) COc1ccc(N2CCN(C(=O)CCS(=O)(=O)c3ccc4c(c3)NC(=O)C(C)S4)CC2)cc1 (stereo not given)
(36) COc1cccc(/C=N/NC(=O)CNC(=O)COc2cccc(C)c2)c1O
(37) Cn1c(SCC(=O)Nc2ccc(NC(=O)c3ccccc3)cc2)nnc1-c1ccncc1
(38) COC(=O)c1nc(NC(=O)c2ccccc2Cl)n[nH]1
(39) CC(C)c1ccc(/C=C2\NC(=S)N(Cc3cccnc3)C2=O)cc1
(40) Nc1nonc1-n1nnc(C(=O)N/N=C/c2cc(Br)ccc2O)c1CSC1=NCCS1

Screen / compound no.,31,32,33,34,35,36,37,38,39,40
TRPV1 potentiator,0,-3,13,21,-3,3,14,8,4,1
CtBP-E1A inh,7,-1,-16,4,1,/,0,11,1,2
PINK1 modulator,0.4%,2.7%,14%,3.6%,1.0%,-0.7%,6.7%,-2.4%,1.6%,3.7%
D2 potentiator,-18,1,-1,-1,-8,-14,-6,-9,8,-2
Six1-Eya2 blk,-8,14,-20,5,0,-73*,-10,4,-15,?
Sfp PPTase inh,-19%,16%,16%,/,19%,-3%,7%,-23%,17%,26%
D2 agonist,-1.0,-4.5,-3.2,-0.9,1.5,-0.1,-1.0,-4.6,6.5,4.9

# Entries 38–40 of the list above:
(38) COC(=O)c1nc(NC(=O)c2ccccc2Cl)n[nH]1
(39) CC(C)c1ccc(/C=C2\NC(=S)N(Cc3cccnc3)C2=O)cc1
(40) Nc1nonc1-n1nnc(C(=O)N/N=C/c2cc(Br)ccc2O)c1CSC1=NCCS1

Screen / compound no.,38,39,40
TRPV1 potentiator,8,4,1
CtBP-E1A inh,11,1,2
PINK1 modulator,-2.4%,1.6%,3.7%
D2 potentiator,-9,8,-2
Six1-Eya2 blk,4,-15,?
Sfp PPTase inh,-23%,17%,26%
D2 agonist,-4.6,6.5,4.9

# The list continues:
(41) CN1CN(C)C(c2ccncc2)=C1c1ccncc1
(42) COc1ccc(N(C(=O)Cn2nnc(-c3ccccc3F)n2)C(C(=O)NCC2CCCO2)c2ccc(Cl)cc2)cc1 (stereo not given)
(43) Cc1ccccc1CN1CCSc2sccc2C1=O
(44) Cc1nc(-c2ccccc2)sc1-c1n[nH]c(=S)n1C
(45) CC1CCCN(C(=O)c2cc(-c3cccs3)nc3ccccc23)C1 (stereo not given)
(46) CCCOc1ccc(C(=O)NNC(=S)NC(=O)c2ccccc2)cc1
(47) CCOC(=O)/C(C#N)=C/c1ccc(N2CCCCC2)cc1
(48) N#Cc1ccc(N2CCOCC2)c([N+](=O)[O-])c1
(49) CC1=NNC(=O)C1CCC(=O)N/N=C(\C)c1ccccc1 (stereo not given)
(50) CCCN1CCC(NC(=O)C2CCN(C(C)=O)CC2)CC1

Screen / compound no.,41,42,43,44,45,46,47,48,49,50
TRPV1 potentiator,-16,?,-5,29,/,-25,-3,3,3,1
CtBP-E1A inh,/,18,5,-11,-11,/,69,-1,-22,6
PINK1 modulator,1.2%,9.8%,-0.3%,2.5%,3.0%,5.1%,-0.2%,-1.2%,-2.9%,-0.3%
D2 potentiator,-1,4,-15,-17,-3,-17,0,-4,3,-4
Six1-Eya2 blk,0,-11,-4,0,-6,-14,58,3,-3,5
Sfp PPTase inh,-11%,9%,1%,2%,/,12%,-25%,-2%,8%,5%
D2 agonist,-8.7,-2.0,-4.4,1.8,2.2,0.1,1.0,-1.7,-4.2,0.3

(51) Brc1ccc(-c2nnc(-c3cccnc3)c3conc23)cc1
(52) O=C(NC(c1ccc(F)cc1)c1cnccn1)C1CCN(CCOc2ccc(Cl)cc2Cl)CC1 (stereo not given)
(53) C[C@H](NC(=O)N1CCn2c1nc1ccccc12)C(=O)NCc1ccc(F)cc1
(54) Cn1ccc(NC(=O)Nc2ccc(Cl)cc2)n1
(55) COc1cc(C)c(S(=O)(=O)N2CCOCC2)c(C)c1C
(56) O=C(Nc1nnc(C2CC2)o1)c1ccc(S(=O)(=O)N2CCCc3ccccc32)cc1

Screen / compound no.,51,52,53,54,55,56
TRPV1 potentiator,/,/,-2,-27,11,/
CtBP-E1A inh,3,-17,5,2,-11,-3
PINK1 modulator,-1.8%,-0.8%,-0.5%,1.0%,0.2%,2.5%
D2 potentiator,22,-13,-5,-3,-2,-1
Six1-Eya2 blk,4,-5,1,-2,-9,-6
Sfp PPTase inh,/,/,8%,3%,6%,4%
D2 agonist,2.9,5.6,-2.4,1.6,-2.4,3.0

# High-throughput results deposited in PubChem BioAssay by National Center for Advancing Translational Sciences (NCATS).
